Assay outcomes as filed in PubChem.
Mtb growth = Mycobacterium tuberculosis H37Rv growth inhibition, cell based, confirmatory dose response (AID 1949). 1.6% of 100,000 active. M. tuberculosis H37Rv growth inhibition. most inactive calls were filed without a number and no value below 0 was filed. inhibition, % at 10 µg/mL; hits with a dose series show IC50 in µg/mL;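 active = confirmed in a dose series; inconclusive = about 50% or more but not retested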;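 note: bacteria grown 7 days with compound before Alamar blue readout; 0% = untreated bacteria and 100% = reference antibiotic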
Active calls of the source: *; i = inactive; ? = inconclusive. Not all compounds are listed; rates above refer to the full screens.

SMILES | Mtb growth
CCNC(=O)C(=O)Nc1ccc(OC)cc1OC | i
COc1ccc2nc(SCC(=O)Nc3cccc(NC(=O)C45CC6CC(CC(C6)C4)C5)c3)[nH]c2c1 | i
O=C(Nc1ccc(S(=O)(=O)N2CCCC2)cc1)c1csc2c1CCCC2 | 33%
CCc1cccc(C)c1NC(=O)CN(c1cc(Cl)ccc1OC)S(C)(=O)=O | i
Cc1ccc(NC(=O)c2ccc(C)c(I)c2)cc1Cl | i
COC(=O)Nc1ncc(CN2C(=O)c3ccccc3C2=O)s1 | i
CCCOc1ccccc1NC(=O)C1CC=CCC1C(=O)O (stereo not given) | i
COc1ccc(OC)c(NC(=O)CN2C(=O)c3cccc4cccc2c34)c1 | 1%
Clc1ccc(-c2nc3c4c5c(sc4ncn3n2)CCCCC5)cc1 | i
COc1ccc(S(=O)(=O)N2CCC(C(=O)Nc3ccc(OC)c(Cl)c3)CC2)cc1 | i
CCC(C)(C)C1CCc2c(sc(NC(=O)c3ccccc3[N+](=O)[O-])c2C(=O)OC)C1 (stereo not given) | 11%
CCOC(=O)CCc1c(C)c2ccc(OCc3cccc4ccccc34)cc2oc1=O | i
O=C(NC(=O)C(F)(F)F)Nc1ccccc1OC(F)F | i
Cc1ccc(NC(=O)C(=O)NCc2ccccc2)c(C)c1 | i
O=C(Cc1ccccc1)Nc1nnc(COc2ccccc2)s1 | 4%
Cc1ccc2nsnc2c1NC(=O)CC(C)C | i
COc1ccccc1OC(C)C(=O)c1ccc(Cl)cc1 (stereo not given) | ?
COc1cc2c3c(c1)-c1c(sn(-c4cc(OC)ccc4OC)c1=S)C(C)(C)N3C(=O)C2=O | i
CNC(=O)C1=C(C)NC(=S)NC1c1ccc(OC)c2ccccc12 (stereo not given) | i
COc1ccc(C(=O)NC(=S)Nc2ccc(C)c(Cl)c2)cc1I | i
Cc1ccc(-c2nc3cc(Cl)ccc3o2)cc1NC(=S)NC(=O)c1ccc(F)cc1Cl | i
Cc1cccc(NC(=O)CN(c2cccc(Br)c2)S(C)(=O)=O)c1C | i
Cc1ccc(C)c(C(=O)NCC(C)C)c1 | i
O=C(NC(=S)Nc1ccc(Cl)c(C(=O)O)c1)c1ccc(F)cc1 | i
Cc1cc(C)c(S(=O)(=O)Nc2ccc(Cl)cc2)cc1C | 15%
Cc1ccc2nc(C3C(=O)c4ccccc4C3=O)ccc2c1 | 2%
O=C(COc1ccccc1)NC(C(=O)Nc1nccs1)C12CC3CC(CC(C3)C1)C2 (stereo not given) | i
CSc1ncc(C(=O)Nc2cccc(C(F)(F)F)c2)cn1 | <0.1µg/mL*
COc1ccccc1-n1c(-c2ccc(C(C)(C)C)cc2)n[nH]c1=S | 0%
CCCc1sc(-n2c(C)ccc2C)c(C#N)c1C | i
CCCN1CCN(C(=S)Nc2cccc3ccccc23)CC1 | i
O=C(Nc1ccccc1C(=O)O)c1ccc(NC(=O)C2CC2)cc1 | 1%
CC(C)C(=O)NCCc1c[nH]c2ccccc12 | 2%
O=C(COc1cc2oc(=O)cc(-c3ccccc3)c2cc1Cl)N1CCCc2ccccc21 | i
COCCNCc1ccc(SC)cc1 | i
C=CCn1c(SCC(=O)NC(C)c2ccccc2)nnc1-c1ccc(Cl)cc1 (stereo not given) | i
CCc1c(C)sc(NC(=S)NCc2ccco2)c1C(=O)OC | i
Cc1nc(C)n(CC(O)COc2ccc3ccccc3c2)n1 (stereo not given) | i
Cc1nnc(SCc2c(Cl)cccc2[N+](=O)[O-])s1 | i
CC(=O)Nc1ccc(NC(=O)CN(Cc2ccc(Br)cc2)S(=O)(=O)c2ccccc2)cc1 | i

Some values from the entries so far:
Mtb growth, CC(C)C(=O)NCCc1c[nH]c2ccccc12 = 2%
Mtb growth, O=C(Nc1ccc(S(=O)(=O)N2CCCC2)cc1)c1csc2c1CCCC2 = 33%

Next entries:
SMILES | Mtb growth
CCOc1ccccc1NS(=O)(=O)c1ccc(Cl)s1 | i
COc1ccccc1CC(=O)O/N=C(\N)Cc1cccc2ccccc12 | i
O=C(CN1C(=O)c2cccc3cccc(c23)C1=O)N1CCN(c2cccc(Cl)c2)CC1 | i
COc1cc(NC(=O)CCCOc2ccccc2)cc(OC)c1 | i
COc1ccc(N(Cc2ccccc2)S(=O)(=O)c2ccc(C)cc2)cc1 | i
CCOC(=O)c1c(NC(=O)c2cc3cc(OC)ccc3oc2=O)sc2c1CCC2 | 10%
CCOC(=O)C(Cc1ccccc1)C(=O)Nc1nccs1 (stereo not given) | i
S=C(Nc1ccc(Cl)cc1)N1CCCC1 | i
CCOC(=O)c1cnc2ccc(Br)cc2c1NCCN1CCOCC1 | i
CCOc1ccc(C(=O)Nc2c(CC)cccc2CC)cc1 | i
O=C(c1ccc(Nc2nnc(-c3ccc(O)cc3)c3ccccc23)cc1)N1CCCCC1 | i
N#CC1=C(N)Oc2c(c(=O)oc3ccccc23)C12C(=O)N1CCCc3cccc2c31 (stereo not given) | i
O=C(NCc1cccnc1)C(=O)Nc1ccc(F)cc1 | i
O=C(NC(=S)Nc1ccccc1C(=O)O)c1cc(I)ccc1Cl | i
Cn1c(CSc2nc(N)c3c4c(sc3n2)CCCC4)nnc1SC/C=C/c1ccccc1 | i
C=CCn1c(CC(=O)Nc2cccc(OC)c2)nnc1SCC(=O)Nc1nc(-c2ccccc2)c(C)s1 | i
Cc1ccc(C(=O)Nc2ccc(S(N)(=O)=O)cc2)o1 | i
CS(=O)(=O)NC1c2cccc3cccc(c23)C1N1CCOCC1 (stereo not given) | i
CCOC(=O)c1c(NC(=S)NCc2ccccc2)sc2c1COC(C)(C)C2 | i
CCCc1cc2c(c(NC(C)=O)n1)c(=O)oc1ccccc12 | i
O=C(COc1ccccc1Cl)Nc1ccccc1NC(=O)c1ccco1 | 10%
CCCCN(C)/C=N/c1c(C#N)cnn1-c1ccc(C)cc1 | ?
COc1ccc(NC(=O)c2cccc(OC)c2OC)c(OC)c1 | 2%
CN(C)C(=O)CSc1nnc(C23CC4CC(CC(C4)C2)C3)o1 | i
O=C(CSc1ccc(Cl)cc1)Nc1ccccc1C(=O)N1CCCC1 | i
CC(C)(C)c1ccc(NC(=O)C(=O)NCCCN2CCOCC2)cc1 | i
COc1ccccc1CNC(c1ccccc1)c1ccccc1 | 1%
C=CCNC(=O)c1cc(Br)cs1 | i
Cc1cccc2oc(-c3ccc(NC(=O)c4ccccc4)cc3)nc12 | i
NCCNc1ccc([N+](=O)[O-])c2cccnc12 | 0%
Cc1cc(O)ccc1N1C(=O)c2cccc3c([N+](=O)[O-])ccc(c23)C1=O | 21µg/mL*
CC(C)c1ccccc1NC(=O)COc1ccc([N+](=O)[O-])cc1 | i
COc1ccc(Nc2nc(-c3cccnc3)cs2)c(OC)c1 | i
CCCCOc1ccc(C(=O)NC2C3CC4CC(C3)CC2C4)cc1 (stereo not given) | 23%
Nc1nonc1C(=O)NCCNCc1ccc(Cl)cc1 | i
O=C(Nc1ccc(I)cc1Cl)c1sc2ccccc2c1Cl | i
O=C(Cc1ccc([N+](=O)[O-])cc1)NNC(=O)C1CCCCC1 | 41%
O=C(O)C1C2C=CC(C2)C1C(=O)OCc1ccccc1 (stereo not given) | i
COc1ccc(N2CCN(C(=S)Nc3ccc(C(C)=O)cc3)CC2)cc1 | i
O=C(/C=C/c1ccc(Cl)c(Cl)c1)c1ccc2ccccc2c1O | i
COCCCNCCOCCOc1ccccc1C(C)(C)C | i
C=CCNc1cc(N2CCN(C(=O)c3ccc(F)cc3)CC2)ccc1[N+](=O)[O-] | i
Cc1c(Cl)cccc1NC(=O)CSC1=C(C#N)C(c2ccc(OCc3ccccc3)cc2)CC(=O)N1 (stereo not given) | i
COc1ccc(NC(=O)c2sc(Nc3cccc(OC)c3)nc2-c2ccccc2)cc1 | i
O=C(Nc1ccccc1)c1cc(S(=O)(=O)N2CCSCC2)ccc1Cl | i
Cc1ccc(CNC(=O)CCCC(=O)O)cc1 | i
CC(C)C(=O)NC(=S)Nc1cccc(NC(=O)c2ccc(Cl)cc2Cl)c1 | 0%
Cc1ccc(OCC(=O)Nc2ccc3oc(=O)ccc3c2)cc1 | 1%
O=C(CN1C(=O)c2ccccc2C1=O)Oc1c(Cl)cccc1Cl | i
CC(=O)Oc1cccc2ccc(/C=C/c3ccc(F)cc3)nc12 | <0.1µg/mL*
Cc1ccc(S(=O)(=O)N2CCCC(C(=O)NCc3ccc4c(c3)OCO4)C2)cc1 (stereo not given) | i
CC1(C)CC(/C=C/c2ccco2)=Nc2ccccc2N1 | 4%
Cc1cccc(-c2nnc(SCC(=O)Nc3ccc(I)cc3C)n2C)c1 | i
O=C(Nc1ccc(F)cc1F)N1CCN(c2ccc([N+](=O)[O-])cc2)CC1 | i
COc1ccc(Cc2nnc(SCC(=O)Nc3ccc(Br)cc3C)o2)cc1 | 2%
CCCCc1ccc2nc(NC(=S)NC(=O)c3ccco3)sc2c1 | 6%
CC(C)c1ccc(-c2nc(N3CCCCC3)[nH]c(=O)c2C#N)cc1 | i
N#Cc1c(NC(=O)CSc2nnc(CNC(=O)c3ccc(Cl)cc3)n2-c2ccccc2)sc2c1CCCC2 | i
O=C(NCc1ccco1)c1ccccc1-c1ccccc1 | ?
COc1ccc(NC(=O)c2c(-c3ccccc3)csc2NC(=O)CN2CCOCC2)cc1 | i

Among those listed so far, these contain a furan ring, fused or not.
SMILES | Mtb growth
CCc1c(C)sc(NC(=S)NCc2ccco2)c1C(=O)OC | i
Cc1ccc(C(=O)Nc2ccc(S(N)(=O)=O)cc2)o1 | i
O=C(COc1ccccc1Cl)Nc1ccccc1NC(=O)c1ccco1 | 10%
CC1(C)CC(/C=C/c2ccco2)=Nc2ccccc2N1 | 4%
CCCCc1ccc2nc(NC(=S)NC(=O)c3ccco3)sc2c1 | 6%
O=C(NCc1ccco1)c1ccccc1-c1ccccc1 | ?

Additional records follow:
SMILES | Mtb growth
O=C(CN(Cc1ccccc1)S(=O)(=O)c1ccc(F)cc1)NC1CCCCC1 | i
CN(C)S(=O)(=O)c1cc(C(=O)NC2CCCCC2)c(Cl)cc1Cl | i
COC(=O)c1c(-c2ccc(Br)cc2)csc1NC(=O)c1cccnc1 | i
COc1cc2c(cc1OC)C(c1cc3c(cc1[N+](=O)[O-])OCO3)CC(=O)N2 (stereo not given) | 0%
O=c1c2c3c(sc2ncn1Cc1ccc(Cl)cc1)CCCC3 | i
CCCn1nnnc1NCc1ccc(F)cc1 | 0%
N#Cc1cccc(NC(=S)NC(=O)c2cccs2)c1 | i
CCc1nnc(NC(=O)Cn2cnc3ccccc3c2=O)s1 | i
CC(C)Oc1ccccc1NC(=O)CSc1nnc(-c2ccccc2Cl)o1 | i
COc1ccc(-c2nc3ccccc3c(=O)n2-c2ccncc2)cc1 | i
CCCCSc1nnc2c(n1)OC=Nc1ccccc1-2 | i
O=C(N/C(=C/c1cccs1)c1nc2ccccc2[nH]1)c1cccs1 | 4%
Cn1c(=O)c2c(nc(SCC(=O)NC(C)(C)C)n2Cc2cccc(Cl)c2)n(C)c1=O | i
O=C(Nc1ccc(Cl)cc1)N1CCCCCC1 | i
CCOC(=O)c1sc(NC(=O)c2cc(C)on2)nc1-c1ccccc1 | i
CCc1c(C)nc(SCCOc2ccc(OC(C)C)cc2)[nH]c1=O | 0%
O=C(c1ccccc1NS(=O)(=O)c1ccc2ccccc2c1)N1CCOCC1 | i
CCOc1ccc(-c2cc(=O)[nH][nH]2)cc1 | i
CCOc1ccc(C(=O)c2nc3c(n2O)CCCCC3)cc1OCC | i
COc1ccc(C(C)C)cc1S(=O)(=O)NCCc1c(C)[nH]c2ccc(F)cc12 | 22%
CCCCNCCOc1cc(C(C)C)ccc1C | i
N#CC1=C(SCC(=O)Nc2ccccc2C(F)(F)F)NC2=C(C(=O)CCC2)C1c1ccccc1F (stereo not given) | 0%
O=S(=O)(c1ccccc1)N1N=C(c2ccccc2)CC1c1ccccc1 (stereo not given) | i
COc1ccc(Nc2sc(C(=O)C34CC5CC(CC(C5)C3)C4)c(N)c2C#N)cc1 | 12µg/mL*
CC(=O)c1c(C)cc(C)c(CSc2nc3ccc([N+](=O)[O-])cc3s2)c1C | i
Cc1ccccc1C1CC(=O)NC(SCC(=O)NCc2ccccc2)=C1C#N (stereo not given) | i
COC(=O)c1sc2nc(-c3ccccc3)nc(Nc3nc(C)cc(C)n3)c2c1C | i
O=C(Oc1ccnc2cc(Cl)ccc12)N1CCCCCC1 | 0%
O=C(Nc1ccc(Br)cc1)C1C2C3CCC(C3)C12 (stereo not given) | 49%
CC(=O)Oc1cnc2ccc(C)cc2c1 | i
COc1ccc(C(=O)Nc2ccc(S(=O)(=O)Nc3nccnc3OC)cc2)cc1OC | i
O=C(COc1ccc(Cl)cc1)Nc1ccc(S(=O)(=O)N2CCCCC2)cc1 | i
CCNc1nc(NC(C)(C)C)nc(OCC)n1 | i
C=CCOc1c(Cl)cc(CNn2nnnc2N)cc1OC | 2%
CC1=CC(=O)N(CCC#N)c2ccccc2N1 | i
Cc1nc(-c2cccc(NC(=O)c3ccco3)c2)cs1 | 9%
CNC(=S)Nc1ccc2ccccc2c1 | i
CCn1c(SCC(=O)Nc2ccc(Cl)cc2C)nnc1-c1ccncc1 | i
COc1cccc(C(=O)Oc2ccc(C(=O)Nc3ccc(C)cc3)cc2)c1 | 1%
Cc1[nH]nc(Cl)c1[N+](=O)[O-] | i
CC1CCN(S(=O)(=O)c2ccc3c(c2)oc(=O)c2cc(S(=O)(=O)N4CCC(C)CC4)ccc23)CC1 | i
